# Bioassay records (PubChem)
# 2A Renilla: lowers the Renilla signal of an FMDV 2A StopGo reporter. HEK cells with a luciferase reporter of 2A StopGo recoding. Potency, µM (highest dose often 57.5 µM), for the others: at the highest dose signal change, negative = less light. 120,000 tested, 0.32% active. AID 1745857; active means well fitted falling curve with a large enough effect; inconclusive means small, poorly fitted or top-dose-only effect; inactive means no such curve, though single readings can be large or run the other way; note: nearly all actives have a fitted effect of over 55% in size; overnight with compound
# 2A firefly: lowers the firefly signal of an FMDV 2A StopGo reporter; HEK cells with a luciferase reporter of 2A StopGo recoding; Potency, µM (highest dose often 57.5 µM), for the others: top-dose signal change, negative = less light; 120,000 tested, 0.23% active; AID 1745856; active = well fitted falling curve with a large enough effect; inconclusive = small, poorly fitted or top-dose-only effect; inactive = no such curve, though single readings can be large or run the other way; note: nearly all actives have a fitted effect of over 60% in size; overnight with compound
# * hit, by the source's call; ? = inconclusive; & = joins results of further samples; [ ] = dose if it differs, or a comment. % is set by controls: 0 for no effect and ±100 for the full control effect; potency is the fitted concentration of half-maximal effect.
Structure	2A firefly	2A Renilla
COc1cc(NC(=O)Cn2nc(C(F)(F)F)c3c2CCCC3)c(OC)cc1Cl	0%	-12%
CCOc1ccc(NC(=O)c2c(NC(=O)c3ccccc3Br)sc3c2CCC(C)C3)cc1 (stereo not given)	-10%	-12%
Cc1ccc(-n2nnnc2SCc2cc(=O)oc3c(C)c(C)ccc23)cc1	34%[activator]	10%
COc1ccc(Nc2nc(-c3c[nH]c(C(=O)N4CCCC4)c3)cs2)cc1	305%[activator]	61%[activator]
O=C(/C=C/c1ccc(-c2ccc(Cl)c(Cl)c2)o1)c1ccc(F)cc1	4%	-6%
CCOC(=O)c1ccc(NC(=O)CSc2nnc(CNC(=O)c3ccc(OC)cc3)n2CC)cc1	80%[activator]	-7%
COc1ccc(OC)c(C2CC(=O)Nc3c(C(=O)O)cn(-c4ccc(F)cc4)c32)c1 (stereo not given)	66%[activator]	57%[activator]
CCOC(=O)CC(NS(=O)(=O)c1ccc2[nH]c3c(c2c1)CCCC3)c1ccccc1Cl (stereo not given)	?	6%
CCn1nc(C(=O)OC/C(O)=C(\C#N)c2nc3ccccc3[nH]2)c2ccccc2c1=O	15%	13%
COc1cc(C(CC(=O)NCc2ccccc2)N2Cc3ccccc3C2=O)cc(OC)c1OC (stereo not given)	-1%	82%[activator]
O=C1CCCC2=C1C(c1ccccc1F)n1nc(SCc3ccc(C(=O)O)cc3)nc1N2 (stereo not given)	10%	0%
Cc1cccc(OCCSc2nc3ccccc3n2CC(O)CO)c1 (stereo not given)	9%	21%
Cc1cc(NC(=O)COC(=O)c2nc(-c3ccccc3)oc2C)ccc1N1CCCC1	20%	4%
CC(NC(=O)CCc1c[nH]c2ccccc12)c1ccncc1 (stereo not given)	-4%	-2%
C=CCSc1nnc(NC(=O)c2cc(=O)c3c(C)cc(C)cc3o2)s1	10%	-4%
O=C(c1nn(Cc2ccccc2)c(=O)c2ccccc12)N1CCc2ccccc21	-1%	36%[activator]
CCNC(=O)CCCN1C(=O)CCn2nc(-c3cccn3C)cc21	-5%	-15%
COCCN1C(=O)c2ccccc2NC1c1cc2ccccc2[nH]c1=O (stereo not given)	-3%	-3%
Cc1ccc(NC(=O)c2oc3ccc4c(c3c2C)C(=O)CC(C)(C)O4)c(C)c1	111%[activator]	-2%
CCC(C(=O)NCCc1ccccn1)c1ccccc1 (stereo not given)	15%	21%
CC(Cc1cccs1)N(Cc1ccccc1)C(=O)c1cccc(S(=O)(=O)N(C)C)c1 (stereo not given)	-9%	29%
C[C@H](NC(=O)C1CC(=O)N(c2ccc(F)cc2)C1)C(=O)N[C@@H](Cc1ccccc1)C(=O)O (stereo not given in full)	17%	2%
Cc1ccc(N(C)S(=O)(=O)c2nnc(NC(=O)C3CCCCC3)s2)cc1	-3%	-1%
O=C(Nc1c(C(=O)N2CCN(c3ccccc3)CC2)oc2ccccc12)c1ccc(Br)o1	-2%	203%[activator]
CCOC(=O)CNC(=O)c1ccc(OCC)cc1	177%[activator]	-2%
CCN(CC)S(=O)(=O)c1ccc(OC(C)C)c(NC(=O)c2ccc(S(=O)(=O)N(C)C)cc2)c1	-8%	8%
Cc1noc(C)c1C(=O)NCc1ccnc(OC2CCCCC2)c1	?	-4%
Cc1cc(C)c2c(n1)sc1c(=O)n(-c3cc(Cl)ccc3C)nnc12	1%	-11%
COc1ccc(Nc2nc3ccccc3nc2NS(=O)(=O)c2cc(C)ccc2C)cc1	?	32%
CCCC(=O)Nc1ccc(-c2csc(NC(=O)c3ccc4c(c3)nnn4CC)n2)cc1	9%	-10%
Cc1cccc(NC(=O)CCSc2ccc(Cl)cc2)c1	0%	0%
CCOc1ccc(CCNC(=O)C2CCN(Cc3nc(-c4ccc(OC)c(OC)c4)oc3C)CC2)cc1OCC	-3%	12%
N#Cc1ccc(NC(=O)CCCc2cccs2)cc1	167%[activator]	0%
CCOc1ccc(NC(=O)CSc2nnc(CNC(=O)c3c(F)cccc3Cl)o2)cc1	-2%&-10%	-9%&0%
Cc1ccc(NC(=O)/C=C/c2cccs2)cc1	187%[activator]	7%[1.06 µM]
C=CCNc1nc(N)c(C(=O)c2ccccc2)s1	141%[activator]	29%
CCCc1cc(=O)n2[nH]c(NCc3ccc(CC)cc3)nc2n1	19%	21%
CN(CC(=O)NC1CCCCNC1=O)Cc1ccc(Br)cc1 (stereo not given)	-18%	-21%
O=C(O)c1ccc(CS(=O)(=O)c2ccccc2)cc1	-6%	-2%
Cc1ccc(OCc2ccccc2C(=O)O)cc1	0%	19%
CC(=O)c1cc(-c2ccccc2)n(CC(=O)Nc2ccc(C)cc2C)c1C	-11%	-8%
Cc1ccc(NS(=O)(=O)c2cc(-c3cc(C)no3)ccc2C)c(Cl)c1	8%	253%[activator]
CC(C)CCn1nc(C(=O)OCC(=O)NC23CC4CC(CC(C4)C2)C3)c2ccccc2c1=O	-5%	-4%
COc1cccc2cc(-c3nc(Cl)c4c5c(sc4n3)CC(C)CC5)c(=O)oc12 (stereo not given)	-7%	-4%
CC(NC(=O)CCNC(=O)c1ccc(F)cc1Cl)c1ccc(Cl)c(Cl)c1 (stereo not given)	-14%	-11%
COc1ccc(CCNC(=O)CCCn2c(=O)c3ccccc3n(Cc3ccc(F)cc3Cl)c2=O)cc1OC	-7%	0%
COc1cc(F)ccc1NC(=O)Cc1nn(C)c(=O)c2ccccc12	?	?
Cc1cc(C(=O)Cn2nc(C(=O)O)c3ccccc3c2=O)c(C)n1CCc1ccc(Cl)cc1	7%	-16%
Clc1ccc(Oc2ccc3nnnn3n2)c(Br)c1	3%	-16%
CC(=O)c1ccc(NC(=O)c2cnc(N3CCCC3)nc2C)cc1	38%[activator]	7%

# 2 neighbouring records already listed, for reference:
Structure	2A firefly	2A Renilla
Clc1ccc(Oc2ccc3nnnn3n2)c(Br)c1	3%	-16%
CC(=O)c1ccc(NC(=O)c2cnc(N3CCCC3)nc2C)cc1	38%[activator]	7%

# Filtered by structure: the entries above with an aryl thioether with sulfur outside any ring.
Structure	2A firefly	2A Renilla
Cc1ccc(-n2nnnc2SCc2cc(=O)oc3c(C)c(C)ccc23)cc1	34%[activator]	10%
CCOC(=O)c1ccc(NC(=O)CSc2nnc(CNC(=O)c3ccc(OC)cc3)n2CC)cc1	80%[activator]	-7%
O=C1CCCC2=C1C(c1ccccc1F)n1nc(SCc3ccc(C(=O)O)cc3)nc1N2 (stereo not given)	10%	0%
Cc1cccc(OCCSc2nc3ccccc3n2CC(O)CO)c1 (stereo not given)	9%	21%
C=CCSc1nnc(NC(=O)c2cc(=O)c3c(C)cc(C)cc3o2)s1	10%	-4%
Cc1cccc(NC(=O)CCSc2ccc(Cl)cc2)c1	0%	0%
CCOc1ccc(NC(=O)CSc2nnc(CNC(=O)c3c(F)cccc3Cl)o2)cc1	-2%&-10%	-9%&0%

# Complete entries, looked up by structure. Screens in order: 2A firefly | 2A Renilla
# CCOc1ccc(NC(=O)CSc2nnc(CNC(=O)c3c(F)cccc3Cl)o2)cc1 reads -2%&-10% | -9%&0%
# CC(=O)c1ccc(NC(=O)c2cnc(N3CCCC3)nc2C)cc1 reads 38%[activator] | 7%
# Cc1cc(C)c2c(n1)sc1c(=O)n(-c3cc(Cl)ccc3C)nnc12 reads 1% | -11%
# Clc1ccc(Oc2ccc3nnnn3n2)c(Br)c1 reads 3% | -16%

# Carrying on.
Structure	2A firefly	2A Renilla
ClCCCN1CCN(c2cccc(Cl)c2)CC1	-1%[11.5 µM]	-6%
Cc1cc(=O)oc2c(C)c(OC(C)C(=O)NCCc3ccc(S(N)(=O)=O)cc3)ccc12 (stereo not given)	-14%	-3%
NNc1cc(N2CCN(c3ccccc3)CC2)ncn1	4%	?
Cc1ccc(NC(=O)C(C#N)C(=O)CC(C)C)cc1 (stereo not given)	0%	16%
COc1ccc(OC)c(NS(=O)(=O)c2ccc(N3CCCC3=O)cc2)c1	12%	59%[activator]
CCC1CCc2c(sc(NC(=O)C(C)C)c2C#N)C1 (stereo not given)	0%	16%
CC(Oc1ccc(-n2cnnn2)cc1)C(=O)Nc1ccccc1Sc1ccccc1 (stereo not given)	8%	13%
COc1ccc(-c2nc(C#N)c(NCCN(C)C)o2)cc1OC	-18%	-24%
COCCCNC(=O)CN1C(=O)COc2ccc(S(=O)(=O)N3CCCCCC3)cc21	-13%	5%
Cn1c(=O)c2c(nc(NCCCCO)n2Cc2ccccc2Cl)n(C)c1=O	-6%	-9%
Cc1ccc(S(=O)(=O)c2c(O)cc(C)c(NS(=O)(=O)c3ccc(Cl)cc3)c2C)cc1	6%	149%[activator]
CCOc1ccc(CNC(=O)Cn2cc3c(n2)-c2c(oc(C(=O)N4CCOCC4)c2C)CC3)cc1	2%	-9%
Cc1ccc(S(=O)(=O)Nc2nc3ccccc3nc2NCc2ccc(Cl)cc2)cc1	132%[activator]	5%
Clc1cc(Cn2nnc(-c3ccccc3)n2)cc2c1OCCCO2	14%	?
CC(=O)c1ccc(NC(=O)NCCc2c[nH]c3ccccc23)cc1	63%&73%[activator]	9%&-3%
CCOc1ccc(-n2c(SCc3nc(-c4ccccc4C)no3)nnc2-c2ccccc2)cc1	-3%	-3%
CCOc1ccccc1NC(=O)CSc1nnc2[nH]c(=O)cc(-c3ccccc3)n12	-14%	-11%
CC(=O)c1cccc(NC(=O)CCCN2C(=O)COc3ccc(C)cc32)c1	5%	-5%
Cc1ccc(CNC(=O)C(=O)NCC(c2cccnc2)N2CCN(c3ccc(F)cc3)CC2)cc1 (stereo not given)	?	?
Cc1ccc(CC(C#N)Sc2nnc(COc3ccccc3Cl)n2C)cc1 (stereo not given)	-5%	52%[activator]
O=C(NC1CC1)c1nc[nH]c1C(=O)NC1CCCCNC1=O (stereo not given)	12%	0%
FC(F)(F)c1cc(-c2cccs2)nc(NC2CCCCC2)n1	-13%	0%
CN(C)C(=O)c1ccc(NC(=O)COC(=O)c2cc3ccccc3o2)cc1	6%	-3%
Cn1c(COc2ccc(C(C)(C)C)cc2)nnc1SCc1csc(-c2ccc(F)cc2)n1	?	-10%[1.06 µM]
O=C(CSc1nnc(-c2ccccc2)c(-c2ccccc2)n1)NC1CCCCC1	-18%	-10%

# 3 entries picked at random from the list so far, as already listed:
Structure	2A firefly	2A Renilla
CN(C)C(=O)c1ccc(NC(=O)COC(=O)c2cc3ccccc3o2)cc1	6%	-3%
CC(Oc1ccc(-n2cnnn2)cc1)C(=O)Nc1ccccc1Sc1ccccc1 (stereo not given)	8%	13%
Cn1c(=O)c2c(nc(NCCCCO)n2Cc2ccccc2Cl)n(C)c1=O	-6%	-9%

# Remaining list, next part.
Structure	2A firefly	2A Renilla
O=C(CCC1CCCCC1)Nc1cccc(F)c1	216%[activator]	19%
Cc1cc(C)c2c(=O)cc(C(=O)Nc3ccc(S(N)(=O)=O)cc3)oc2c1	-6%	-5%
Cc1ccc(S(C)(=O)=O)cc1C(=O)Nc1ccc(N2CCOCC2)cc1	18%	-2%
O=C(CNC(=O)c1ccc2c(c1)OCO2)Nc1ccc2c(c1)-c1ccccc1C2	2%	-13%
Cc1ccc(NS(=O)(=O)c2ccc(NC(=O)N3CCCC3)cc2)cc1C	-12%	18%
COc1cc(C)ccc1OC(=O)C(C)Oc1ccc(Br)cc1 (stereo not given)	29%	6%
CCN(CC)C(=S)Nc1ccc(C(=O)O)cc1	-8%	-1%
CCC(=O)NC1CC(=O)N(c2ccc3c(c2)OCCO3)C1 (stereo not given)	-7%	-6%
Cc1c(C(=O)N(Cc2ccc(N(C)C)cc2)Cc2ccco2)oc2cc(Br)ccc12	0%	25%

# Some of the compounds tested; the hit share may differ from the screen's.
